Compound activity deposited in PubChem by Southern Research Institute.
Mtb H37Rv – Mycobacterium tuberculosis H37Rv growth inhibition, cell based, confirmatory dose response (AID 1949) | most inactive calls were filed without a number and no value below 0 was filed | one-dose inhibition, % at 10 µg/mL; IC50 in µg/mL for titrated hits | hit rate 1.6% among 100,000;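 active = confirmed in a dose series; inconclusive = about 50% or more but not retested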;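 also: bacteria grown 7 days with compound before Alamar blue readout; 0% = untreated bacteria and 100% = reference antibiotic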
Starred values were filed as active, the others as inactive; i = inactive; ? = inconclusive.

SMILES,Mtb H37Rv
N#C/C(=C\c1ccc2cccnc2c1)c1nc2ccccc2[nH]1,i
CCC(=O)c1ccc(OCc2ccc(S(=O)(=O)N3CCOCC3)cc2)cc1,i
S=C(NCc1cccnc1)Nc1ccc2c(c1)OCO2,i
Cc1cc(NC(=O)CCC2CCCC2)no1,i
C1CCC(OCCN2CCN(CCOC3CCCCC3)CC2)CC1,i
CC(C)(C)NC(=O)N1CCC(C(=O)O)CC1,i
N#CC1=C(N)Oc2n[nH]c(-c3ccccc3)c2C1C1C=CCCC1 (stereo not drawn),i
O=C(c1cccc2ccccc12)N1CCN(CC2CC=CCC2)CC1 (stereo not drawn),i
COC(=O)Cc1c(C)c2ccc(OCc3ccccc3Br)c(C)c2oc1=O,0.2%
CCC(=O)Nc1sc(Cc2ccccc2)c(C)c1C(N)=O,i
CN1CCN(NC(=S)Nc2ccc(S(N)(=O)=O)cc2)CC1,0.4%
O=[N+]([O-])c1ccc(N2CCN(C(=S)Nc3cccc(F)c3)CC2)cc1,i
COc1ccc(OC)c(S(=O)(=O)N2CCN(C)CC2)c1,i
Cc1cccc(NC(=O)C(=S)NCCc2ccccc2)c1C,0.7%
CCCOc1ccc(NC(=O)CC2SCCNC2=O)cc1 (stereo not drawn),i

(continued)
SMILES,Mtb H37Rv
Cc1cccc(NC(=O)C2CCN(S(=O)(=O)c3ccc(Cl)cc3)CC2)c1,9.5%
Cc1ccc(F)c(NC(=O)c2ccc(C(C)(C)C)cc2)c1,i
COc1ccc2nc(/C(C#N)=C\c3cc(C)n(-c4cccnc4)c3C)[nH]c2c1,i
O=C(Oc1ccc(Br)cc1C(=S)N1CCCC1)c1ccccc1Cl,i
COc1ccc(NC(=S)N2CCC(C(O)(c3ccccc3)c3ccccc3)CC2)c(OC)c1,0.2%
COc1ccc(OC(C)C(=O)Nc2ccc(OC)c(OC)c2)cc1 (stereo not drawn),7.8%
CCc1cc(=O)oc2cc(OC3CCCCC3=O)ccc12 (stereo not drawn),1.1%
O=S(=O)(NC1CC2CCC1C2)c1ccc(Br)s1 (stereo not drawn),i
CCc1ccc(OC(C)c2nnc(SCC(=O)Nc3ccc(Cl)cc3C)n2C)cc1 (stereo not drawn),i
COc1ccccc1C(CC(=O)O)c1ccc(OC(C)C)cc1 (stereo not drawn),i
CCc1ccc(OCC(=O)Nc2ccc(I)cc2C(C)C)cc1,i
O=C(Nc1ccc(Cl)cc1)C1CCN(C(=O)c2ccc(F)cc2)CC1,i
Cc1ccc2nc(NC(=O)CS(=O)(=O)Cc3ccccc3)sc2c1,i
CC(=O)c1cnc(Nc2nc(C)c3ccccc3n2)nc1C,i
COc1ccc(-c2ccc(CCC(=O)O)n2CCc2ccccc2)cc1,i

Further structures:
SMILES,Mtb H37Rv
O=C1CN(c2ccccc2Cl)C(=O)CN1c1ccccc1Cl,i
COC(=O)c1sc(NC(=S)Nc2cc(OC)c(Cl)cc2OC)c(C(=O)OC)c1C,i
Cc1ccc(S(=O)(=O)Oc2ccc3c(oc(=O)c4ccccc43)c2C)cc1,i
O=C(CN1C(=O)c2ccccc2S1(=O)=O)N1CCN(C(c2ccccc2)c2ccccc2)CC1,i
Cc1cc([N+](=O)[O-])ccc1NC(=O)CSc1nnc(COc2ccccc2Cl)n1C,i
Cc1cccc(NC(=O)COc2ccc3ccccc3c2Br)c1C,i
C=CCn1c(CNC(=O)c2ccc(OC)c(OC)c2)nnc1SCC(=O)N1CCN(c2ccccc2)CC1,0.8%
COc1ccccc1OCc1nc2ccccc2[nH]1,4.3%
O=C(c1cccs1)N1CCC(N2CCN(c3ccccc3)CC2)CC1,9.7%
COCCNCCCOc1ccc2ccccc2c1Br,i
O=C(Nc1ccc(CN2CCOCC2)cc1)c1ccc(F)cc1,i
CCn1c(CC(=O)Nc2ccc(OC)cc2)nnc1SCc1ccc(Cl)cc1Cl,i
CN1CCN(C(=O)c2ccc(COc3ccc(Cl)cc3Cl)cc2)CC1,0.7%
CCOC(=O)c1c(NC(C)=O)sc2c(Cl)c(C=O)ccc12,i
COc1ccc(C(=O)N2CCN(S(=O)(=O)c3ccc4ccccc4c3)CC2)cc1,i

Next part:
SMILES,Mtb H37Rv
CCCOc1cc(C)c(S(=O)(=O)n2nnc3ccccc32)cc1C,i
O=C(O)CCCC(=O)Nc1cc([N+](=O)[O-])ccc1O,i
O=C(CCCN1C(=O)c2ccccc2C1=O)Oc1ccccc1Cl,i
COc1ccc(Cl)cc1NC(=O)NN1CCOCC1,i
NS(=O)(=O)c1ccc(NC(=S)N2CCN(c3ccc([N+](=O)[O-])cc3)CC2)cc1,2.2%
O=C(c1ccc(C(=O)N2CCC(Cc3ccccc3)CC2)nc1)N1CCC(Cc2ccccc2)CC1,41.3%
CSc1nc2ccccc2n1CC(=O)Nc1ccccc1,i
Cc1ccc(-c2noc(CNCCCN(C)C)n2)cc1,i
CCCCc1cc(=O)oc2cc(OC(=O)c3ccccc3)c(Cl)cc12,i
CC(=O)Nc1ccc(C(=O)Nc2ccc(S(=O)(=O)NCCc3ccccc3)cc2)cc1,i
COc1cc2ccccc2cc1C(=O)NC(=S)Nc1ccc2oc(-c3ccccc3)nc2c1,i
CN(c1ccccc1C(=O)N1CCCCCC1)S(C)(=O)=O,i
O=C(O)CCCC(=O)Nc1cccc(C(F)(F)F)c1,i
CC(=O)OC(C(=O)N(C)c1nnc(-c2ccc(C)cc2)s1)c1ccccc1 (stereo not drawn),i
CN(CC(=O)Nc1ccc(Br)cc1F)S(=O)(=O)c1cc(Cl)ccc1Cl,i

(continued)
SMILES,Mtb H37Rv
O=C(NCC1CCS(=O)(=O)C1)Oc1ccccc1 (stereo not drawn),0.4%
Cn1nc(-c2ccc(N3CCOCC3)c(NC(=O)c3ccccc3)c2)c2ccccc2c1=O,i
O=C1CCCc2c1cc(C(=O)NCCc1ccccc1)c(=O)n2-c1ccccc1,i
CCCC(=O)Nc1ccc(N2CCN(c3c(F)c(F)c(F)c(F)c3F)CC2)c(Cl)c1,i
COc1ccc(-c2nnc(SCC(=O)Nc3cc(C)c(C)cc3Br)n2C)cc1,i
CS(=O)(=O)N(CCc1ccccc1)CC(=O)NCc1ccccn1,i
Cc1ccc(C(=O)Nc2ccc(S(=O)(=O)N3CCCCCC3)cc2)cc1Br,4.8%
N#Cc1ccc(Oc2ccc(C(=O)OCc3ccc([N+](=O)[O-])cc3)cc2)cc1C#N,i
O=C(CCc1ccccc1)N1CCN(c2ccccn2)CC1,i
O=C(Oc1ccccc1C(=S)N1CCOCC1)c1ccccc1F,i
COc1ccc(NC(=O)CN(c2ccccc2Br)S(C)(=O)=O)cc1OC,i
Cn1c(C2CCCCC2)nc2ccccc21,5.7%
O=C(Nc1nccs1)c1cccc(NC(=O)c2ccco2)c1,i
CC1CCc2c(sc(NC(=O)c3ccc4c(c3)OCCO4)c2C#N)C1 (stereo not drawn),i
C=C(C)CSCc1nc2ccccc2[nH]1,i

Exported with each value named: part of the list above
SMILES: CCCC(=O)Nc1ccc(N2CCN(c3c(F)c(F)c(F)c(F)c3F)CC2)c(Cl)c1
  Mtb H37Rv: i
SMILES: COc1ccc(-c2nnc(SCC(=O)Nc3cc(C)c(C)cc3Br)n2C)cc1
  Mtb H37Rv: i
SMILES: CS(=O)(=O)N(CCc1ccccc1)CC(=O)NCc1ccccn1
  Mtb H37Rv: i

(listing goes on)
SMILES,Mtb H37Rv
CN1CCN(C(=O)COc2ccc(C(C)(C)C)cc2Br)CC1,3.3%
O=C(Nc1cc(C(F)(F)F)ccc1Cl)C1CCC(N2C(=O)C3C4CCC(C4)C3C2=O)CC1 (stereo not drawn),i
Cc1cccc(-c2nc(C#N)c(NCC(C)C)o2)c1,1.0%
CSc1cccc(NC(=O)C(C)Sc2ccc(Cl)cc2)c1 (stereo not drawn),i
CC1CN(C(=O)c2cccc3c2-c2ccccc2C3=O)CC(C)O1 (stereo not drawn),i
CCOC(=O)c1c(NC(=O)c2ccc(C(F)(F)F)cc2)sc2c1CCCC2,i
Cc1cccc(C(=O)Nc2ccc3c(c2)C(=O)N(CC(C)C)C3=O)c1,i
O=C(NCc1ccco1)c1cc2c(s1)CCCCC2,i
O=C(Nc1nnc(CCC2CCCCC2)s1)c1cccs1,i
COc1ccc(CN2C(=O)c3oc4ccc(Cl)cc4c(=O)c3C2c2ccc(C(C)C)cc2)cc1 (stereo not drawn),1.1%
N#Cc1c(-c2ccccc2)[nH]c(=S)[nH]c1=O,i
Nc1nc(Nc2ccc(F)cc2)sc1C(=O)c1ccc2c(c1)OCO2,i
O=C(CC1Sc2ccccc2NC1=O)NCc1ccc2c(c1)OCO2 (stereo not drawn),i
O=C(Cc1cccs1)Nc1ccc([N+](=O)[O-])cc1,1.0%
Cc1nnc(SCc2ccc(Br)cc2)n1-c1ccccc1,i

New compounds follow:
SMILES,Mtb H37Rv
O=c1cc(-c2ccccc2)nc(N2CCc3ccccc32)[nH]1,1.4%
CCCc1sc(N(C(=O)CC)c2ccc(C(=O)O)cc2)nc1-c1ccc(OC)cc1,i
O=C(COc1ccc([N+](=O)[O-])cc1)Nc1ccc(N2CCN(Cc3ccccc3F)CC2)cc1,i
O=C(NC(=S)Nc1ccc(-c2nc3ncccc3o2)cc1)c1ccc(Br)cc1,1.5%
CCOC(=O)c1ccc(N2C(=O)C(CC(=O)Nc3ccc(I)cc3)N(CC(=O)OC)C2=S)cc1 (stereo not drawn),i
CCN1CCN(S(=O)(=O)c2cc(C)ccc2OC)CC1,i
CCOc1ccc(NC(=O)CSc2nnc(-c3ccc(Cl)cc3)n2-c2ccc(F)cc2)cc1,i
CCOC(=O)N1CCC(N2CCN(S(=O)(=O)c3ccc(OC)cc3)CC2)CC1,1.4%
CCn1c(=S)[nH]c2sc3c(c2c1=O)CCCCC3,15.7%
Cc1ccccc1C(=O)Nc1cccc(OCC(=O)c2ccc(F)cc2)c1,7.4%
CC(=O)c1ccccc1OCCCN1CCOCC1,i
Cc1c(C)n(Cc2ccccc2)c2ccc(C(=O)NNC(=S)NCc3ccco3)cc12,i
CC(=O)Nc1ccccc1NC(=O)COc1ccc(C(C)(C)C)cc1,i
CCOc1ccccc1N(CC(=O)Nc1cccc(C)c1C)S(C)(=O)=O,i
C=CCn1c(SCC(=O)Nc2ccccc2OCC)nnc1-c1ccccc1O,1.1%

More compounds follow.
SMILES,Mtb H37Rv
CCOC(=O)c1ccc(NC(=S)N2CCN(c3cccc(C(F)(F)F)c3)CC2)cc1,i
O=C(NNC(=O)C1CC2CCC1C2)c1ccccc1 (stereo not drawn),i
COC(=O)c1c(-c2ccccc2)csc1NC(=O)c1ccc(OC(F)F)cc1,i
CCOC(=O)N1CCN(C(=O)C23CC4CC(CC(C4)C2)C3)CC1,i
c1c2c(cc3c1OCO3)OCN(CCOC13CC4CC(CC(C4)C1)C3)C2,0.7%
CCCCn1c2ccccc2c2n[nH]c(=S)nc21,i
CCOc1ccc(NC(=O)c2c(NC(=O)CNC(C)c3ccccc3)sc3c2CCC3)cc1 (stereo not drawn),i
O=C(NC(=S)Nc1ccc(N2CCOCC2)cc1)c1ccc(OCc2ccccc2)cc1,14.6%
COc1ccc(CCNC(=S)NNC(=O)c2c(Br)c(C)nn2C)cc1OC,i
Cc1ccc(N2C(=O)/C(=C\c3ccc(C)o3)SC2=S)cc1,8.6%
CCCC(Oc1ccc(Br)cc1)C(=O)NN (stereo not drawn),i
CCOC(=O)c1c(NC(=O)C23CC4CC(CC(C4)C2)C3)sc(C(=O)Nc2ccccc2OC)c1C,i
CCOc1cc(CO)cc(Cl)c1OCc1ccccc1C#N,i
CCOc1ccccc1NC(=O)c1ccc2c(c1)C(=O)N(CC1CCCO1)C2=O (stereo not drawn),i
Cc1[nH]c2ccccc2c1C(=O)C(=O)N1CCOCC1,i

(further entries)
SMILES,Mtb H37Rv
CCCC(=O)Nc1ccc(Cl)c(NC(=O)c2cc(Br)ccc2OC)c1,i
C=CCn1c(SCC(=O)Nc2cccc(SC)c2)nnc1-c1ccco1,i
CCCCNS(=O)(=O)c1ccc(OCC(=O)N2CCN(Cc3ccccc3)CC2)cc1,i
OCCCNc1ncnc2ccc(Br)cc12,i
CCN(CC(N)=O)S(=O)(=O)c1ccc(Br)cc1,i
O=S(=O)(Nc1ccc(-c2nnc(-c3ccccc3)o2)cc1)c1ccc(Cl)cc1,4.0%
CNC(=O)COc1ccc(S(=O)(=O)NC(C)c2ccccc2)cc1 (stereo not drawn),i
CCN(CC)S(=O)(=O)c1cc(Br)ccc1OC,5.1%
Cc1ccc(SCCCCNCCN2CCOCC2)cc1,i
CSc1ccccc1NC(=S)Nc1ccc2c(c1)OCO2,i
O=C(NCc1ccccc1Cl)c1cc(Cl)ccc1Cl,i
C=CCOc1ccc(C2NC(=O)NC(O)(C(F)(F)F)C2C(=O)c2cccs2)cc1 (stereo not drawn),i
CC(NC(=O)Nc1cccc(C(F)(F)F)c1)C1CC2CCC1C2 (stereo not drawn),<0.1µg/mL*
Cc1cccc(N2CCN(C(=O)COc3ccc(Cl)cc3Cl)CC2)c1C,?

Reprinted at random: 4 compounds from above.
SMILES,Mtb H37Rv
CCCCNS(=O)(=O)c1ccc(OCC(=O)N2CCN(Cc3ccccc3)CC2)cc1,i
C=CCn1c(SCC(=O)Nc2cccc(SC)c2)nnc1-c1ccco1,i
CCCC(=O)Nc1ccc(Cl)c(NC(=O)c2cc(Br)ccc2OC)c1,i
CSc1ccccc1NC(=S)Nc1ccc2c(c1)OCO2,i

The list is partial, so the mix of outcomes need not match the whole.
